Mtb growth: Mycobacterium tuberculosis H37Rv growth inhibition, putative kinase inhibitor library, confirmatory dose response (AID 2842). M. tuberculosis H37Rv growth inhibition; higher % means a stronger effect; some inactives read as strong as hits. inhibition, % at 10 µg/mL, or IC90 in µg/mL where a hit was titrated. actives 5.2% (n = 24,000);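 active = confirmed in a dose series; about a fifth of its hits are not listed in these tables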;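 also: bacteria incubated one week before Alamar blue readout; 0% = bacteria only wells and 100% = bacteria with high antibiotic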
Numbers without * were called inactive.

SMILES	Mtb growth
COc1ccccc1C(=O)NCCn1cc(SCC(N)=O)c2ccccc21	-3%

From PubChem BioAssay

This is a subset (hit frequency here may not be typical).
